Env fusion inh: blocks HIV Env-driven cell-cell fusion. HeLa-JRFL Env/CEM21 cell fusion, luciferase. inhibition, % at 12.3 µM. 360,000 compounds, 1.1% hits. AID 651610;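 active = mean replicate inhibition score of at least 50 and every replicate individually at or above 50; inconclusive = only one of the two criteria met; inactive = mean below 50 and not all replicates reaching 50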;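 note: 0% = plate neutral controls and 100% = maraviroc near 300 nM; one replicate is shown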
Rce1 inh: inhibitors of yeast Ras-converting enzyme; AID 2563; 290,000 compounds, 0.27% hits; yeast membranes, quenched prenylated peptide cleavage fluorescence; Q03530; calls only;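 active = fall in fluorescence gain of 50% or more versus controls, with final raw signal at or below 3038400; inconclusive = same 50% fall but final raw signal above 3038400; inactive = fall in fluorescence gain under 50%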;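 note: plate controls were neutral control wells for no effect and wells lacking membranes for full effect; tested at 10 µM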
Target sequence (Q03530 whole entry, looked up): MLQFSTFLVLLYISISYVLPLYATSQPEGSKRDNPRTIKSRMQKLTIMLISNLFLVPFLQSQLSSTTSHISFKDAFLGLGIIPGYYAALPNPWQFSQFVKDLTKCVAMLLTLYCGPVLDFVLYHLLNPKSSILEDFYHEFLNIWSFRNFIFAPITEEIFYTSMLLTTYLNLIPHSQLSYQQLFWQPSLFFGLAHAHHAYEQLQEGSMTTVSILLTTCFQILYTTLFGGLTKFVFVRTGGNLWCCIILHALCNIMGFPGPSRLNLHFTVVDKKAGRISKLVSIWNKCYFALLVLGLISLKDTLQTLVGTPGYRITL
MT1-MMP act inh: MT1-MMP (human) activation inhibition; P50281; HT1080 RFP-PRO-GFP cells, GFP/RFP ratio fluorescence, overnight; percent of plate control window, DMSO zero; GFP/RFP ratio change, % at 20 µM; 360,000 compounds, 0.061% hits; AID 651647;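 active = GFP/RFP ratio change of at least 30% with cell ATP level not reduced by more than half and red fluorescence within 50% of control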; note: strong numbers were not always called active
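Test system: HT1080 RFP-PRO-GFP cells; Benchmarks: DMSO and RFP-L50D-GFP cell wells; Timing: cells overnight before dosing, compound overnight, 37 °C, 5% CO2; Compound: one 20 µM compound dose with 1% DMSO; Read-out: GFP/RFP fluorescence ratio.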
PABP polyA inh: blocks human PABP binding to poly(A) RNA; inhibition, % at 35 µM; P11940; 290,000 compounds, 1% hits; fluorescence polarization;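 active = 50% or more with normal probe brightness, or confirmed in later tests; inconclusive = above 50% with abnormal brightness, or retests that disagree; inactive = below 50% or failed in later tests; about a fifth of its hits are not listed in these tables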;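 note: calls also rest on retests at 20 µM and on dose response follow-up; controls were probe without protein and protein plus probe with vehicle; some compounds called inactive have numbers as strong as hits; many hits fall short of the cut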
eIF4H inh: inhibitors of RNA binding by human eIF4H. Q15056. eIF4H fluorescence polarization binding assay. inhibition, % at 35 µM. 290,000 compounds, 0.94% hits. AID 2012;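 active = 50% or more with normal probe brightness, or confirmed in later tests; inconclusive = above 50% with abnormal brightness, or retests that disagree; inactive = below 50% or failed in later tests; about a fifth of its hits are not listed in these tables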;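 note: calls also rest on retests at 20 µM and on dose response follow-up; 0% = protein and probe with vehicle and 100% = probe without protein; strong numbers were not always called active; many hits fall short of the cut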
CSC inhib: cancer stem cell inhibition; 300,000 compounds, 1.1% hits; AID 2717; cancer stem cell-like cells viability, luminescence; inhibition, % at 7.5 µM;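 active = mean at 75% or more and at least half the replicates too; inconclusive = mean and replicates disagree; tested in HMLE shEcad cells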;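 note: 0% = median of negative and 100% = median of positive control wells; the first replicate is given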
UUG fidelity: alters start codon recognition fidelity in yeast | S. cerevisiae UUG-firefly luciferase reporter, luminescence/redox ratio | activity score, % at 18.7 µM | 350,000 compounds, 0.13% hits | AID 602363;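 active = replicate mean at a twofold rise or more, about +100% in these data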;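 note: firefly luciferase made from a UUG start codon reports start codon fidelity; reporter light over untreated wells divided by growth signal over untreated wells; some hits fall short of that in this replicate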
MT1-MMP act inh RFP: further read-out of MT1-MMP act inh, marked with its call; RFP signal change, %; measured here: RFP expression control read;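 0 = vehicle wells; hits needed this value within 50% of zero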
* = called active by the depositor; i = inactive; ? = inconclusive; . = no result given; + = active, no number.

SMILES	Env fusion inh	Rce1 inh	MT1-MMP act inh	MT1-MMP act inh RFP	PABP polyA inh	eIF4H inh	CSC inhib	UUG fidelity
CCc1ccc(NC(=O)CSc2ccccn2)cc1	-1.8	i	0.1	1.7	?	2.5	-1.4	.
Cc1noc(C)c1CSCC(=O)N(C)CC(=O)Nc1ccc(Cl)cc1	-34.3	i	-1.8	-3.2	-2.5	-1.2	-12.6	-0.5
CCN1CCN(S(=O)(=O)c2ccc(Cl)c(C(=O)N(C)Cc3ccc(F)cc3)c2)CC1	-4.5	i	3.3	1.1	.	.	-5.2	8.0
CCOC(=O)CS(=O)(=O)c1ccc(C(F)(F)F)cn1	.	i	3.8	0.3	0.6	11.2	1.5	.
O=c1[nH]c2cc3c(cc2cc1C(c1nnnn1C1CCCC1)N1CCCc2ccccc21)OCCO3 (stereo unspecified)	-6.8	.	-5.2	-3.6	5.2	-0.3	.	4.4
CC(C)(C)Nc1c([N+](=O)[O-])c(=O)sc2ccccc12	3.6	i	6.0	0.3	-1.5	0.6	-10.8	-24.0
Cc1ccc(OCc2cc(C(=O)N(C)CCc3ccccc3)no2)cc1C	-50.7	i	-0.5	4.4	5.7	-5.4	5.5	2.5
COc1ccc2[nH]c3c(NCc4ccco4)ncnc3c2c1	.	i	.	.	2.3	0.9	12.0	.
Cc1c(S(=O)(=O)N2CCc3ccccc3C2)c(=O)n(C)c(=O)n1C	-20.1	i	-0.6	-1.0	12.3	-12.6	-4.0	-15.3
COc1cc(OC)cc(C(=O)NC(=S)Nc2nnn(C)n2)c1	5.8	i	0.2	4.8	-3.8	1.4	2.5	.
Cc1cc(C(=O)NNC(=S)NC(=O)/C=C/c2ccccc2Cl)n[nH]1	-40.3	i	4.9	2.7	-3.8	12.5	11.9	-20.3
N#Cc1ccccc1NC(=O)CSc1nnc(-c2ccc(F)cc2)n1-c1ccccc1	.	i	-1.9	-5.6	-5.3	3.0	.	0.5
COc1ccc(CNC(=O)C2CCN(S(=O)(=O)c3ccc4c(c3)CC(C)N4C(=O)C3CC3)CC2)cc1 (stereo unspecified)	10.2	i	3.9	-1.9	-1.1	-1.9	-14.4	-0.8
COc1ccc(-c2nn(-c3ccccc3)cc2/C=N/n2cnnc2)cc1OC	.	i	0.1	-2.6	-11.7	6.6	-8.3	.
CCOc1ccc(-c2csc(N)c2C(=O)OC)cc1	-26.2	i	12.7	9.8	15.0	9.1	-10.9	-12.7
N#Cc1ccc(-c2nc3ccc(Cl)cn3c2Cc2ccccc2C(F)(F)F)cc1	-37.8	.	-6.8	-16.0	.	.	.	-8.5
COc1cc(SC)ccc1C(=O)Nc1cccc(C)n1	-228.7	i	-1.3	-4.1	7.1	-4.8	-2.7	-20.0
COc1ccc(N2C(=O)CS/C2=N\C(=S)Nc2ccccc2)cc1	-5.7	i	3.5	2.9	-16.3	-13.4	2.7	-12.5
Cc1nn(C)c(C)c1S(=O)(=O)N1CCC(C(=O)NCCC2=CCCCC2)CC1	11.4	i	9.7	5.9	4.0	7.4	-8.1	3.1
CCCN(Cc1nnc(-c2ccccc2Cl)o1)C(=O)COc1ccc(Cl)cc1	5.0	.	1.1	-5.1	.	.	.	-15.9
CCOC(=O)c1c(C)[nH]c(C(=O)COC(=O)CN2C(=O)C3CCCCC3C2=O)c1C (stereo unspecified)	0.5	i	2.6	1.3	2.3	8.1	-4.6	-2.1
COc1cc(C#N)ccc1OCC(=O)N1CCc2ccccc2C1	-1.0	.	3.2	0.5	-4.3	0.9	-20.7	0.1
CCCCC(=O)NCCc1ccc(OC)cc1	-49.5	i	0.4	-1.8	-12.8	-3.5	.	-14.4
O/N=C/c1cn(-c2ccccc2)nc1-c1ccc2c(c1)OCCO2	-41.6	i	-2.4	-4.4	1.1	-12.0	4.8	-2.5
Cc1ccccc1-c1nc(S(=O)(=O)c2ccccc2)c(N2CCCC2)o1	.	.	-3.7	-5.5	.	.	-4.9	-19.8
CCOCCCNC(=O)c1ccc(CN2CCc3ccccc3C2)cc1	27.3	.	1.7	-2.8	.	.	.	-21.2
CCc1nnc(NC(=O)c2ccc3c(=O)n4c(nc3c2)CCCCC4)s1	-2.7	i	-0.2	1.1	2.9	1.0	-19.2	-9.0
COc1ccc2c(c1OC)C(=O)N(c1cccc(/C=C/C(=O)O)c1)C2	-4.3	i	-2.1	4.6	7.7	8.1	-1.9	-0.4
O=C(COC(=O)CC1c2ccccc2CCN1S(=O)(=O)c1ccc(F)cc1)Nc1ccccc1 (stereo unspecified)	6.4	i	1.4	1.2	11.0	2.1	0.2	.
C/C(=N\NC(=O)c1cc(C(C)C)[nH]n1)c1ccco1	-14.3	i	2.5	4.6	0.0	8.0	-2.7	.

Brought forward from above: 4 entries, followed by the next part.
SMILES	Env fusion inh	Rce1 inh	MT1-MMP act inh	MT1-MMP act inh RFP	PABP polyA inh	eIF4H inh	CSC inhib	UUG fidelity
CCc1nnc(NC(=O)c2ccc3c(=O)n4c(nc3c2)CCCCC4)s1	-2.7	i	-0.2	1.1	2.9	1.0	-19.2	-9.0
COc1ccc2c(c1OC)C(=O)N(c1cccc(/C=C/C(=O)O)c1)C2	-4.3	i	-2.1	4.6	7.7	8.1	-1.9	-0.4
O=C(COC(=O)CC1c2ccccc2CCN1S(=O)(=O)c1ccc(F)cc1)Nc1ccccc1 (stereo unspecified)	6.4	i	1.4	1.2	11.0	2.1	0.2	.
C/C(=N\NC(=O)c1cc(C(C)C)[nH]n1)c1ccco1	-14.3	i	2.5	4.6	0.0	8.0	-2.7	.
CCCc1nc2sc3c(c2c(=O)n1NC(=O)CCC(=O)O)CCCC3	.	i	-2.9	2.0	-4.0	-1.9	.	5.7
CCOC(=O)CSC1=C(C#N)C(C)C2=C(CCCC2=O)N1 (stereo unspecified)	.	i	-1.8	0.3	12.6	-1.0	-1.4	-44.6
CC(C)(C)NS(=O)(=O)c1ccc(CCC(=O)N2CCOCC2)cc1	-39.3	i	0.6	0.9	-8.9	-2.1	-15.7	.
CC(C)CCN1CCN(Cc2ccc(N3CCNC3=O)cc2)CC1CCO (stereo unspecified)	-4.8	i	0.0	2.3	11.0	-1.1	13.1	.
O=c1cc(-c2ccc(Cl)cc2)oc(=O)[nH]1	4.9	i	0.1	4.1	1.9	1.6	-0.3	.
O=c1c2ccccc2n(Cc2ccc(F)cc2)c(=O)n1C1CCCC1	.	i	-1.2	-1.3	-5.1	-6.3	4.8	-6.5
Cc1ccccc1NC(=O)c1ccno1	-6.2	i	4.2	0.5	15.7	27.7	-3.4	-3.4
O=C(CCc1ccccc1)Nc1ccc(N2CCOCC2)cc1	.	i	1.7	0.1	-7.0	1.5	-16.0	-11.7
CC(C)N(CCNC(=O)c1ccc(NC2=NC3CS(=O)(=O)CC3S2)cc1)Cc1ccco1 (stereo unspecified)	.	i	1.9	8.5	-6.6	-6.2	-6.9	4.5
O=C1CCCCC1S(=O)(=O)c1ccccc1 (stereo unspecified)	.	i	-1.0	2.0	-6.5	6.4	0.3	.
Cc1cc(O)c(-c2n[nH]c3c2C(c2cccc(O)c2)N(Cc2cccnc2)C3=O)cc1Cl (stereo unspecified)	-15.8	i	-0.5	-6.2	-2.0	-6.3	21.5	-10.7
OCCN=C1CCCc2c1[nH]c1ccc(Cl)cc21	67.3*	i	2.5	2.4	-3.6	1.8	14.2	.
CNc1nc(N/N=C/c2cc3c(cc2[N+](=O)[O-])OCO3)nc(Nc2ccccc2)n1	-150.0	i	2.6	-6.2	-2.6	9.1	-4.2	.
Cc1ccc(NC(=O)N2CCCCC2)cc1[N+](=O)[O-]	-0.7	i	-2.9	-6.4	7.7	3.0	-4.4	-23.6
COC(=O)c1ccccc1-c1ccc(C(c2c(C)[nH][nH]c2=O)c2c(C)[nH][nH]c2=O)o1	-19.0	i	-4.1	-0.4	-3.4	16.3	6.5	.
CSCCC(NC(=O)COc1ccccc1)C(=O)NCCOc1ccccc1 (stereo unspecified)	.	.	-0.2	3.3	.	.	-6.0	-6.1
CCOc1ccc(Nc2ncnc3c2nnn3Cc2ccccc2)cc1	-21.3	i	8.2	1.6	2.1	-3.4	21.2	-2.9
CCOc1ccc(NC(=O)Cn2nc(C(N)=O)c3ccccc3c2=O)cc1S(=O)(=O)N1CCCC1	-4.8	.	3.5	4.2	.	.	-18.7	44.0
CCn1c(SCC(=O)OCC(=O)N2c3ccccc3NC(=O)C2(C)C)nnc1-c1ccco1	-22.0	i	-1.8	1.6	-1.3	-4.4	-19.0	-7.7
COc1ccc(-c2oc3ccccc3c2C(=O)OCc2ccccc2OC)cc1	13.1	+	5.5	4.0	1.9	-2.3	16.4	0.7
CN(c1ccccc1)S(=O)(=O)c1ccc(NC(=O)c2ccc(F)cc2)cc1	3.7	i	0.8	-18.1	.	.	-4.1	.
COc1ccc(NC(=O)Nc2ccc3c(c2)CCC3)c(OC)c1	-0.3	i	7.1	21.0	-6.2	-6.6	-3.8	-14.0
COC(=O)C(C)n1cnc2c(nnn2-c2ccccc2)c1=O (stereo unspecified)	.	i	-0.7	0.6	-1.1	-3.0	-10.4	0.0
COc1cc(-c2nnc(NC(=O)c3ccc(S(=O)(=O)N4CCOCC4)cc3)o2)cc(OC)c1OC	18.7	.	.	.	37.2	10.8	18.1	.
CCCCCCCCSc1nnc2[nH]c(=O)cc(N)n12	8.6	i	6.4	4.5	0.1	-8.3	-8.1	.
CCSc1ccc2c(c1)N(CCCN1CCN(C)CC1)c1ccccc1S2	5.9	.	-3.5	-6.8	.	.	77.5*	-9.3
O=C(/C=C/c1ccccc1Cl)Nn1cnc2ccccc2c1=O	2.4	i	-1.2	4.2	9.0	-6.3	4.1	.
O=C(Nc1ncc2c(n1)-c1ccccc1CC2)c1ccc(Cl)cc1	-24.0	i	-2.6	1.1	-8.5	6.2	9.6	-16.9
CC1CCC2(CC1)NC(=O)N(CC(=O)N1CCc3ccccc3C1)C2=O (stereo unspecified)	-11.0	i	4.5	-0.3	-4.7	-5.8	-8.7	-4.3
C/C(=C/c1ccccc1)C(=O)N1CCC(C)CC1	-5.3	i	2.7	-1.4	1.6	7.7	-8.3	-4.1
O=C(CC(Nc1cccc(Cl)c1Cl)C(=O)O)c1ccccc1 (stereo unspecified)	14.5	i	-4.1	0.9	2.9	-2.8	-6.0	-22.9
CC(C(=O)N1CCN(c2ccc([N+](=O)[O-])cc2)CC1)N1C(=O)C2CC=CCC2C1=O (stereo unspecified)	1.5	i	1.6	-1.5	0.1	-0.8	2.1	.
CCOC(=O)C1C(=O)NC(N2CCN(Cc3ccccc3)CC2)=NC1c1ccccc1 (stereo unspecified)	-5.6	i	-0.4	0.7	-1.9	-3.4	-16.1	-17.4
CCc1nnc(NC(=O)CSc2nnc(CNc3ccc(OC)cc3)n2CC)s1	-40.2	i	2.4	-0.8	2.2	-3.3	-19.9	.
C=CCn1c(SCC(=O)c2cc(C)n(CCOC)c2C)nc2sc(C)c(C)c2c1=O	.	i	-0.8	-10.3	1.1	4.3	0.8	5.0
Cn1c(CNC(=O)CCNC(=O)c2cccc(Br)c2)cc(=O)n(C)c1=O	1.0	i	6.1	1.1	5.7	-12.3	10.7	-0.1
Cc1ccccc1CNC(=O)C1CCC(=O)N(Cc2cccc(F)c2)C1 (stereo unspecified)	-1.1	i	3.5	3.1	1.0	-7.6	2.2	-4.2
O=C(Nc1ccccc1-c1ccccc1)c1ccc(NC(=O)c2ccco2)cc1	.	i	-4.1	-10.7	5.4	-6.8	8.7	-6.3
Cc1ccc(NC(=O)Cn2nc(C)c([N+](=O)[O-])c2C)cc1Cl	3.4	i	4.6	0.6	-4.2	0.7	.	.
